Screens deposited in PubChem BioAssay by National Center for Advancing Translational Sciences (NCATS).
Rango-impB inh: Rango-importin beta binding inhibition; Q14974; Rango CFP/YFP FRET sensor + importin beta, 45 min; Potency, µM (series often up to 92.2 µM), inactives show at the top dose inhibition of complex formation; 0.031% of 340,000 active; AID 540263; active = rising FRET ratio curve, often small or poorly fitted; inconclusive = mostly compound fluorescence or quenching in the first reads; inactive = flat curves in all reads;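 note: potency is the fitted concentration of half-maximal effect; 0% = DMSO wells and 100% = buffer wells lacking importin beta; nearly all actives have a fitted effect of over 15% in size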
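FRET biosensor Rango (snurportin 1 IBB between N-terminal EYFP and C-terminal Cerulean), 50 nM in PBS/1 mM DTT/0.02% Tween-20/0.1% BSA, preincubated 5 min RT with compound; 0.125 microM importin beta added, 45 min RT, CFP/YFP FRET ratio read.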
Rango dissoc inh: inhibitors of RanGTP-induced Rango-importin beta complex dissociation. 0.071% of 340,000 active. Potency, µM (top dose mostly 46.1 µM), inactives show at the top dose activity change, negative = inhibition. Biochemical FRET Rango-importin beta, RanGTP-induced dissociation. AID 540253; active means falling FRET ratio curve, often poorly fitted, with flat reads before Ran was added; inconclusive means other falling curves, or compound fluorescence or quenching; inactive means flat or rising ratio curve;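 note: potency is the fitted concentration of half-maximal effect; % of control where 0% means no effect; nearly all actives have a fitted effect of over 45% in size; -100% = wells without RanGTP and RCC1; the record marks most hits as doubtful in a second field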
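Recombinant Rango FRET biosensor (EYFP–snurportin 1 IBB–cerulean CFP10) at 0.1 uM premixed with 0.25 uM importin beta in PBS, 1 mM DTT, 0.02% Tween-20, 0.1% BSA. Compound added 5 min; RanGTP-RCC1 (0.6 uM Ran, 2 mM GTP, 0.2 uM RCC1) then triggers release, read at 45 min.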
GLA inh pH 4.5: alpha-galactosidase A (human) inhibition, pH 4.5; P06280; purified enzyme, 4-MU-alpha-Gal fluorescence, pH 4.5; activity change, negative = inhibition, % at 105 µM; 230,000 tested, under 10 active; AID 1467; inconclusive = small, poorly fitted or top-dose-only inhibition, or a rising curve; inactive = flat fitted curve, though single readings scatter; no compound was filed as active;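 note: 0% = full activity with enzyme and -100% = basal without enzyme; dose as in the result columns while the protocol names 77 µM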
Target sequence (P06280 whole entry, looked up): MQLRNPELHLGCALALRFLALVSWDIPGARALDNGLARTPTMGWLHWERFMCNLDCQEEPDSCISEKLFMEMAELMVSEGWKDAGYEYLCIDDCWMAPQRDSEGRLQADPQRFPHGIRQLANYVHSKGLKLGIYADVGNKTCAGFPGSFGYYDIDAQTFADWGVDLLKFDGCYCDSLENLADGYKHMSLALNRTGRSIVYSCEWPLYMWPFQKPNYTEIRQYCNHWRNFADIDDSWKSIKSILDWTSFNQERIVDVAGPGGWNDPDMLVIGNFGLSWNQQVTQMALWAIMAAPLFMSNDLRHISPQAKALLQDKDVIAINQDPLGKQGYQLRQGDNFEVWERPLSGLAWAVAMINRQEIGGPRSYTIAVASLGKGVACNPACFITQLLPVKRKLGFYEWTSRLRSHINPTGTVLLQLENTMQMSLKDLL
miR-21 reporter: miR-21 reporter, rising signal. 340,000 tested, under 10 active. AID 2288. HeLa miR-21 FLuc reporter, luciferase, 48 h. Potency, µM (highest dose often 38.3 µM), for the others: top-dose reporter change, positive = more light; active = well fitted rising curve with a large enough effect; inconclusive = small, poorly fitted or top-dose-only effect; inactive = no such curve, though single readings can be large or run the other way;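 note: % of control where 0% means no effect; miR-21 action dims this reporter so a rising signal means less miR-21 action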
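Compounds were titrated across several concentrations (up to approximately 40 uM) and incubated 48 hours with HeLa miR-21-FLuc reporter cells (miR-21 target sequence downstream of FLuc, endogenous miR-21). Readout was firefly luciferase luminescence after lytic detection reagent.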
An asterisk follows results filed as active; ? = inconclusive; . = not tested or not shown; & = joins results of further samples; [ ] = dose if it differs, or a comment.

Rango-impB inh | compound | Rango dissoc inh | GLA inh pH 4.5 | miR-21 reporter
-0.3% | CCCc1cc(=O)[nH]c(SCC(=O)N2C(C)CCCC2C)n1 (centres undefined) | 44.7% | . | -1.5%
-4.0% | O=C(CCN1CCN(c2ccccc2)CC1)N/N=C/c1ccccc1OC(F)F | 8.2% | 3.2 | 3.2%
? | CN1CCc2c(sc(NC(=O)C3COc4ccccc4O3)c2C(N)=O)C1 (centres undefined) | ? | . | -60.0%
? | CCCCN(C(=O)C1COc2ccccc2O1)c1c(N)n(CCC)c(=O)[nH]c1=O (centres undefined) | -14.4% | . | .
3.3% | Cn1nnnc1SCC(=O)NC(=O)c1cccc([N+](=O)[O-])c1 | 10.4% | 1.5 | -1.7%
0.3% | CNC(=S)N(CCc1ccc(S(N)(=O)=O)cc1)C1CC(=O)N(c2ccccc2F)C1=O (centres undefined) | 9.5% | -6.3 | 12.4%
-0.2% | Nc1nccc(-c2cc(-c3ccc(Cl)cc3Cl)no2)n1 | -0.5% | 2.9 | -47.9%
3.0% | Fc1ccccc1C(c1nnnn1Cc1ccc2c(c1)OCO2)N1CCN(Cc2ccccc2)CC1 (centres undefined) | 0.4% | -0.6 | 21.1%
-0.5% | CCOC(=O)c1sc(N)c(C(=O)Nc2ccccc2OC)c1C | 1.8% | 0.5 | 17.6%
1.1% | CSc1nc2ccc(NC(=O)c3cc4ccccc4o3)cc2s1 | -14.1% | -2.6 | -56.9%
0.8% | Cc1ccc(N2C(=O)C(NC(=O)c3ccccc3F)(C(F)(F)F)C3=C2CC(C)(C)CC3=O)cc1 (centres undefined) | 1.3% | -7.5 | -0.8%
0.7% | CCOC(=O)N1CCN(S(=O)(=O)c2cc(OCC)ccc2OCC)CC1 | 16.5% | 5.9 | -0.7%
0.2% | O=C1C=C(c2c(O)ccc3ccccc23)c2ccccc2C1=O | 16.3% | . | .
-3.0% | CCOc1ccc(C(C(=O)NCC2CCCO2)N(C(=O)c2snc(C(N)=O)c2N)c2ccc(F)cc2)cc1 (centres undefined) | -6.5% | . | 17.1%
0.3% | Cc1cc(NC(=O)c2ccc(Cl)c(S(=O)(=O)N3CCCCC3)c2)no1 | -1.9% | . | -0.1%
? | Cc1ccc(NC(=O)CN2C(=O)S/C(=C\c3ccc(-c4cccc(C(=O)O)c4C)o3)C2=O)cc1C | ? | -14.2 | 4.1%
0.2% | Cc1ccc(N=C(N)N=C(N)N)c(C)c1 | 7.8% | 13.0 | 0.3%
? | CCOc1cc(/C=C2\SC(=O)N(c3ccc(O)cc3)C2=O)ccc1O | ? | -5.8 | -13.3%
-1.1% | CC(C)C1Oc2ccccc2N(CC(=O)N(Cc2ccccn2)CC2CCCO2)C1=O (centres undefined) | 6.9% | -3.9 | -3.1%
? | CCN(CC)CCN1C(=O)C(O)=C(C(=O)c2ccc(C)o2)C1c1ccccn1 (centres undefined) | ? | . | .
? | CC(=O)N1C(O)CC(C)N1c1ccccc1 (centres undefined) | 1.5% | 1.2 | -8.0%
-0.4% | Cn1c(=O)c2c(nc(CN3CCN(CCO)CC3)n2Cc2cccc3ccccc23)n(C)c1=O | -10.6% | 3.6 | -1.3%
-2.8% | Cc1ccn2c(=O)nc(SCC(=O)OCc3ccccc3)nc2c1 | -17.7% | . | .
-3.2% | Cc1cccc(NC(=S)N/N=C/c2cccc(O)c2)c1C | -4.4% | -16.5 | 26.6%
-2.3% | Cc1cccc(/C=C2/Sc3ccc(C(=O)NCCN4CCCC4)cc3NC2=O)c1 | -6.6% | . | -6.3%
2.3% | COC(=O)c1c(-c2ccc(C)cc2)csc1NC(=S)NC(=O)c1cc(OC)cc(OC)c1 | 2.1% | 9.9 | -2.0%
-2.7% | CCc1cc[n+](C(C(=S)Nc2cccc(C)c2)=C([O-])c2ccc(C)c([N+](=O)[O-])c2)cc1 | -17.3% | . | .
3.2% | Cc1cccc(CNC(=O)C2CCC(=O)N(CCc3cccc(F)c3)C2)n1 (centres undefined) | -13.2% | . | -1.1%
-0.3% | COC(=O)c1ccc(NC(=S)NC2CC(C)(C)NC(C)(C)C2)cc1 | 18.2% | 1.2 | -7.5%
-3.6% | Cc1ccc(C(C)NC(=O)c2cc3ccccc3oc2=O)cc1C (centres undefined) | -6.1% | . | -15.1%
. | Cc1cccc(-n2c(N)cc(=O)nc2SC(C)C(=O)NC2CCCCC2)c1 (centres undefined) | . | 7.1 | -2.0%
? | Cc1nc(N2CCN(C)CC2)c2sc(=S)n(-c3ccccc3)c2n1 | 7.2% | 3.1 | -7.7%
3.7% | Cc1ccc(C)c(C(=O)CSc2n[nH]c(C)n2)c1 | 1.3% | -1.2 | -12.8%
4.5% | Cc1ccc(NC(=O)C(=O)NCCOc2ccc(Cl)cc2)c(C)c1 | -12.1% | -9.4 | -11.6%
-0.3% | CCOC(=O)C1(C)C=C(Nc2ccc(OC)cc2)C(=O)N1c1ccc(OC)cc1 (centres undefined) | 8.7% | 2.1 | 1.0%
2.5% | C=CCC(C#Cc1ccccc1)[N+](C)(C)CC=C (centres undefined) | -10.2% | -7.9 | -0.2%
1.2% | S=c1nc(-c2ccc(Br)cc2)oc2c1CCCC2 | 22.2% | -0.4 | -9.9%
. | Cc1ccc(S(=O)(=O)/C(C#N)=C/c2c(Oc3ccc(Cl)cc3)nc3c(C)cccn3c2=O)cc1 | . | 1.4 | -8.3%
-10.9% | O=C(c1ccc(F)cc1)C1CCN(C(=O)Nc2ccc(F)cc2)CC1 | 18.8% | -3.5 | 0.4%
? | O=C(NCCN1CCOCC1)c1ccc(/C=C2\Sc3ccccc3N(Cc3ccccc3F)C2=O)cc1 | ? | . | 11.8%

Next section (two carried over from the part before).
Rango-impB inh | compound | Rango dissoc inh | GLA inh pH 4.5 | miR-21 reporter
-10.9% | O=C(c1ccc(F)cc1)C1CCN(C(=O)Nc2ccc(F)cc2)CC1 | 18.8% | -3.5 | 0.4%
? | O=C(NCCN1CCOCC1)c1ccc(/C=C2\Sc3ccccc3N(Cc3ccccc3F)C2=O)cc1 | ? | . | 11.8%
-1.0% | CCN1CCN(Cc2ccc(NC(=O)Nc3cccs3)cc2)CC1 | -12.7% | 1.8 | -12.9%
-0.3% | Nc1c(Cl)ncnc1N1CCOCC1 | 2.5% | -7.7 | 0.1%
-1.4% | COc1ccc(-n2nc3c(c2NC(=O)COc2ccccc2F)CS(=O)(=O)C3)cc1 | -14.5% | . | -0.9%
-0.2% | COc1ccc(OC)c(NC(=O)NCCc2c[nH]c3ccccc23)c1 | -9.3% | . | 3.9%
-2.9% | CCOC(=O)C1=CN(Cc2cccc(-c3ccc(F)cc3)c2)S(=O)(=O)N(C)C1C (centres undefined) | 21.2% | . | .
1.9% | CC(C)OCCCNS(=O)(=O)c1ccc2ccccc2c1 | 13.8% | 1.1 | -2.2%
0.2% | COc1ccc(C(=O)CSc2nnc(CNC(=O)c3ccccc3)n2C)cc1 | 3.3% | . | 3.5%
-0.9% | CCC(C(=O)N1CCCCCC1)n1nc(C)n2c(cc3occc32)c1=O (centres undefined) | -13.3% | . | -4.1%
1.0% | Cc1nnc(NC(=O)CSc2ccc3nnc(-c4ccccn4)n3n2)s1 | 1.2% | 4.0 | 0.3%
2.3% | Cc1ccc(Cc2nc3ccccc3[nH]2)cc1 | -7.8% | . | -23.9%
-6.5% | CN(C(=O)COC(=O)/C=C/c1cccc([N+](=O)[O-])c1)C1CCS(=O)(=O)C1 (centres undefined) | 11.5% | 1.2 | 14.0%
-2.2% | COc1ccc(C(=O)NC2CCN(C(=S)Nc3ccc(C)c(C)c3)CC2)cc1 | 9.6% | -1.6 | -10.7%
1.6% | CCOc1ccc(C(=O)Nc2ccc(-c3cc4ccccc4oc3=O)c(C)c2)cc1[N+](=O)[O-] | 15.4% | -0.6 | -5.5%
0.4% | CC(=O)Nc1ccc(Oc2cc(N)cc([N+](=O)[O-])c2)cc1 | -0.4% | 3.1[21.1 µM] | -14.2%
1.3%&-2.3% | Cc1onc(-c2ccccc2)c1C(=O)Nc1ccccc1C#N | -0.2%&8.8% | -6.0 | -6.2%
1.8% | CC(C)CNC(=O)C(=O)NCCC1CCCCN1S(=O)(=O)c1cccs1 (centres undefined) | -2.4% | . | .
1.7% | CCOC(=O)C1=CN(Cc2cccc(Br)c2)S(=O)(=O)NC1C (centres undefined) | 4.3% | . | .
-1.3% | CCN(CC)S(=O)(=O)c1ccc2oc(C(=O)NCCCN3CCOCC3)c(C)c2c1 | -6.0% | -0.8 | 1.6%
0.9% | CCOC(=O)N1CCC(NC(=O)c2cc(C(=O)Nc3cccc(C(F)(F)F)c3)ccc2CO)CC1 | 0.6% | -0.6 | 16.8%
. | O=C(c1cccnc1)N1CCN(c2ccccc2Cl)CC1 | . | -0.5 | -5.2%
0.3% | COc1ccc(/C=C(\NC(=O)c2ccccc2)C(=O)NCCC(=O)O)cc1 | -0.5% | 4.3 | 3.1%
5.3% | Cc1ccc(CN2CCN(CC(=O)NC(C)c3ccc4c(c3)OCCO4)C2=O)cc1 (centres undefined) | 35.9% | -2.7 | 1.6%
2.6% | Cc1ccc2c(C)nc(Nc3nc(CSc4nnnn4-c4ccccc4)cc(=O)[nH]3)nc2c1 | -2.2% | -0.9 | -1.7%
2.2% | Cc1nn(C)cc1CNC(=O)c1cnn2c1NC(c1ccc(Br)cc1)CC2C(F)(F)F (centres undefined) | -8.5% | -3.3 | -2.2%
-2.7% | N#CC(C(=O)Nc1ccc(Cl)c(Cl)c1)=C1Nc2ccccc2N1 | -3.9% | -10.3 | -3.6%
-0.2% | CC(C)[C@H](NC(=O)c1ccco1)C(=O)NCc1ccccc1 | -6.3% | . | -3.5%
-2.6% | Cc1cccc(NC(=O)COC(=O)c2ccccn2)c1 | 0.0% | . | -6.9%
-1.2% | O=C(CSc1nc2ccccc2c(=O)n1Cc1ccco1)Nc1cccc(O)c1 | -2.3% | . | -14.7%
-0.8% | CCn1c(CC(=O)Nc2ccc(F)cc2)nnc1SCC(=O)NC1CCCC1 | 20.4% | . | 1.1%

In the list so far, 13 have fluorine.
Rango-impB inh | compound | Rango dissoc inh | GLA inh pH 4.5 | miR-21 reporter
-4.0% | O=C(CCN1CCN(c2ccccc2)CC1)N/N=C/c1ccccc1OC(F)F | 8.2% | 3.2 | 3.2%
0.3% | CNC(=S)N(CCc1ccc(S(N)(=O)=O)cc1)C1CC(=O)N(c2ccccc2F)C1=O (centres undefined) | 9.5% | -6.3 | 12.4%
3.0% | Fc1ccccc1C(c1nnnn1Cc1ccc2c(c1)OCO2)N1CCN(Cc2ccccc2)CC1 (centres undefined) | 0.4% | -0.6 | 21.1%
0.8% | Cc1ccc(N2C(=O)C(NC(=O)c3ccccc3F)(C(F)(F)F)C3=C2CC(C)(C)CC3=O)cc1 (centres undefined) | 1.3% | -7.5 | -0.8%
-3.0% | CCOc1ccc(C(C(=O)NCC2CCCO2)N(C(=O)c2snc(C(N)=O)c2N)c2ccc(F)cc2)cc1 (centres undefined) | -6.5% | . | 17.1%
3.2% | Cc1cccc(CNC(=O)C2CCC(=O)N(CCc3cccc(F)c3)C2)n1 (centres undefined) | -13.2% | . | -1.1%
-10.9% | O=C(c1ccc(F)cc1)C1CCN(C(=O)Nc2ccc(F)cc2)CC1 | 18.8% | -3.5 | 0.4%
? | O=C(NCCN1CCOCC1)c1ccc(/C=C2\Sc3ccccc3N(Cc3ccccc3F)C2=O)cc1 | ? | . | 11.8%
-1.4% | COc1ccc(-n2nc3c(c2NC(=O)COc2ccccc2F)CS(=O)(=O)C3)cc1 | -14.5% | . | -0.9%
-2.9% | CCOC(=O)C1=CN(Cc2cccc(-c3ccc(F)cc3)c2)S(=O)(=O)N(C)C1C (centres undefined) | 21.2% | . | .
0.9% | CCOC(=O)N1CCC(NC(=O)c2cc(C(=O)Nc3cccc(C(F)(F)F)c3)ccc2CO)CC1 | 0.6% | -0.6 | 16.8%
2.2% | Cc1nn(C)cc1CNC(=O)c1cnn2c1NC(c1ccc(Br)cc1)CC2C(F)(F)F (centres undefined) | -8.5% | -3.3 | -2.2%
-0.8% | CCn1c(CC(=O)Nc2ccc(F)cc2)nnc1SCC(=O)NC1CCCC1 | 20.4% | . | 1.1%

Not all compounds are listed; the hit share may differ from the screen's.
